# Screens from PubChem BioAssay.
# MLL AF4-AF9 inh: blocks AF4 peptide binding to human AF9; P42568; AlphaScreen, biotin-AF4 peptide binding to FLAG-AF9; inhibition, % at 10 µM; hit rate 0.47% among 350,000; AID 651704;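 active = every replicate reaching a set inhibition limit, whatever the replicate mean, cut at about 25% in these data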;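 note: 0% = plate neutral control median and 100% = total signal loss; the record names both 10 and 1 µM as test concentration; the first replicate is given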
# Target sequence (P42568 whole entry, looked up): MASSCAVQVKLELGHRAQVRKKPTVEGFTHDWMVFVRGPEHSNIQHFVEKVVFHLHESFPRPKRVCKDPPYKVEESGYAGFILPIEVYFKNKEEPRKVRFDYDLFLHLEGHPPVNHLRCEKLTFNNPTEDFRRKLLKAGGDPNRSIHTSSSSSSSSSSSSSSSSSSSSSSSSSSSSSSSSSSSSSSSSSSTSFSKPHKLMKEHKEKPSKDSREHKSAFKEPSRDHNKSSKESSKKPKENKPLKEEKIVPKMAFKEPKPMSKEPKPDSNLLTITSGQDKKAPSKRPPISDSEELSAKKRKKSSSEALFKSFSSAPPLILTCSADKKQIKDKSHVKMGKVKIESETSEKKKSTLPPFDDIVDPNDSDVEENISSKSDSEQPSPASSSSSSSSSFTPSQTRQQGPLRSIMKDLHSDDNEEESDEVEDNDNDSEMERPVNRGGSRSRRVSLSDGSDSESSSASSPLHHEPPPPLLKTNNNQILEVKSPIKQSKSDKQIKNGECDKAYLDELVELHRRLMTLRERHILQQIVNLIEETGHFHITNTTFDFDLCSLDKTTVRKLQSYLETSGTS
# FGF22 binding: shifts melting point of recombinant human FGF22 | Q9HCT0 | recombinant FGF22 thermal shift, SYPRO orange fluorescence; percent of sucrose octasulfate shift, DMSO zero | calls only at 9.99 µM | hit rate 1.5% among 340,000 | AID 651658;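 active = melting point raised past a set limit in the mean and every replicate; three in four hits are not shown here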
# Target sequence (Q9HCT0 whole entry, looked up): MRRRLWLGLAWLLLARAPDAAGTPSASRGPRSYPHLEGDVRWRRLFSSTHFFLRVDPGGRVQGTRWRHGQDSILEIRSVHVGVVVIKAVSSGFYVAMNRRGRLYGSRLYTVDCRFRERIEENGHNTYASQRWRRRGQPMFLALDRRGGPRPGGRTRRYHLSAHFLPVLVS
# Active calls of the source: *; i = inactive. A portion of the library, so the mix of outcomes need not match the whole.
MLL AF4-AF9 inh	FGF22 binding	Structure
-0.9	i	CN(C)C(=O)C[C@@H]1C[C@@H]2c3cc(NS(C)(=O)=O)ccc3O[C@@H]2[C@H](CO)O1
0.2	i	COc1ccc(CN(C)C[C@@H]2OCCCC[C@H](C)Oc3ccc(NC(=O)CCCN(C)C)cc3C(=O)N([C@@H](C)CO)C[C@H]2C)cc1
-1.6	i	Cc1noc(C)c1NC(=O)N(C)C[C@H]1Oc2ccc(NC(=O)Cc3cn(C)c4ccccc34)cc2CC(=O)N([C@H](C)CO)C[C@H]1C
0.5	i	CO[C@@H]1CN(C)C(=O)c2ccc(NS(=O)(=O)c3cn(C)cn3)cc2OC[C@@H](C)N(Cc2cccc(F)c2)C[C@H]1C
-2.1	i	O=C(C[C@@H]1C[C@H]2c3cc(NC(=O)c4cccnc4)ccc3O[C@H]2[C@H](CO)O1)NCC(F)(F)F
-0.4	i	C[C@H]1CN([C@@H](C)CO)C(=O)c2cc(NC(=O)Nc3ccc4c(c3)OCO4)ccc2O[C@H]1CN(C)Cc1ccc(C(=O)Nc2ccccc2N)cc1
2.8	i	COc1ccccc1C#Cc1ccc2c(c1)O[C@H](CN(C)Cc1ccncc1)[C@H](C)CN([C@H](C)CO)S2(=O)=O
-1.5	i	Cc1ccccc1S(=O)(=O)N[C@@H]1CC[C@H](CCNS(=O)(=O)c2cccc(F)c2)O[C@@H]1CO
-2.3	i	COc1ccc(S(=O)(=O)N(C)C[C@@H]2Oc3ccc(NC(=O)CCC(F)(F)F)cc3CC(=O)N([C@H](C)CO)C[C@@H]2C)cc1
-2.3	i	CCNC(=O)C[C@H]1CC[C@H]2[C@@H](COc3ccc(NC(C)=O)cc3C(=O)N2C)O1
-1.4	i	COc1ccc(NC(=O)N(C)C[C@@H]2OCCCC[C@H](C)Oc3ccc(NC(=O)c4ccccc4)cc3C(=O)N([C@H](C)CO)C[C@H]2C)cc1
0.1	i	COC(=O)C[C@@H]1CC[C@H]2[C@H](COc3ccc(NC(=O)Nc4cccc(C)c4)cc3C(=O)N2C)O1
0.8	i	C[C@@H]1CN([C@H](C)CO)S(=O)(=O)c2ccc(-c3cncnc3)cc2O[C@H]1CN(C)CC1CC1
0.2	i	Cc1ccc(S(=O)(=O)NCC[C@H]2CC[C@@H](NC(=O)CCN3CCCCC3)[C@@H](CO)O2)cc1
-3.5	i	COCC(=O)N(C)C[C@H]1Oc2cc(C3=CCCCC3)ccc2S(=O)(=O)N([C@@H](C)CO)C[C@@H]1C
-2.8	i	COc1ccc(C#Cc2cnc3c(c2)C(=O)N([C@H](C)CO)C[C@H](C)[C@@H](CN(C)C(C)=O)O3)cc1
-3.0	i	O=C(C[C@@H]1CC[C@@H]2[C@H](COC[C@H](O)CN2S(=O)(=O)c2ccccc2Cl)O1)NCc1ccccc1Cl
0.6	i	C[C@@H]1CN([C@H](C)CO)C(=O)Cc2cc(NC(=O)Nc3ccc4c(c3)OCO4)ccc2O[C@H]1CN(C)Cc1ccc(Cl)c(Cl)c1
0.4	i	C[C@@H]1CN([C@@H](C)CO)C(=O)c2cc(NS(=O)(=O)c3ccc(Cl)cc3)ccc2O[C@@H]1CN(C)Cc1ccc(Cl)c(Cl)c1
-6.7	i	C[C@H]1CN([C@@H](C)CO)C(=O)c2cccc(NC(=O)C3CCOCC3)c2O[C@H]1CN(C)C(=O)Nc1ccc2c(c1)OCO2
-2.8	i	COCC#Cc1ccc2c(c1)O[C@H](CN(C)C(=O)C1CC1)[C@H](C)CN([C@@H](C)CO)S2(=O)=O
-14.3	i	C[C@H](CO)N1C[C@H](C)[C@H](CN(C)S(=O)(=O)c2ccc(Cl)cc2)Oc2ccc(NC(=O)Cn3cnnn3)cc2C1=O
-10.0	i	C[C@H](CO)N1C[C@H](C)[C@@H](CN(C)CC2CCCCC2)Oc2ccc(NS(=O)(=O)c3cccs3)cc2C1=O
0.2	i	O=C(C1=C[C@@H](c2ccccc2)C[C@@H](OCCCCO)O1)N1CCN(Cc2ccccc2)CC1
-3.6	i	COCC#Cc1ccc2c(c1)O[C@H](CN(C)S(=O)(=O)c1ccc(F)cc1)[C@@H](C)CN([C@@H](C)CO)S2(=O)=O
-0.6	i	CN(C)Cc1cn(CC[C@@H]2CC[C@H](NC(=O)Nc3ccccc3F)[C@@H](CO)O2)nn1
3.9	i	CCCC#Cc1cnc2c(c1)C(=O)N([C@H](C)CO)C[C@@H](C)[C@H](CN(C)Cc1ccccc1)O2
-4.0	i	C[C@@H]1CN([C@H](C)CO)C(=O)Cc2cc(NS(=O)(=O)c3ccccc3)ccc2O[C@@H]1CN(C)S(=O)(=O)c1cccs1
5.1	i	CC(=O)N(C)C[C@H]1Oc2cc(/C=C/c3ccccc3)ccc2S(=O)(=O)N([C@H](C)CO)C[C@@H]1C
-3.8	i	C[C@H](O)C#Cc1ccc([C@@H]2[C@@H](CO)N3CCCCN(S(=O)(=O)c4ccccc4)C[C@@H]23)cc1

# Arranged by SMILES length (highest first): three of the compounds above
MLL AF4-AF9 inh	FGF22 binding	Structure
-3.6	i	COCC#Cc1ccc2c(c1)O[C@H](CN(C)S(=O)(=O)c1ccc(F)cc1)[C@@H](C)CN([C@@H](C)CO)S2(=O)=O
-3.8	i	C[C@H](O)C#Cc1ccc([C@@H]2[C@@H](CO)N3CCCCN(S(=O)(=O)c4ccccc4)C[C@@H]23)cc1
-2.8	i	COCC#Cc1ccc2c(c1)O[C@H](CN(C)C(=O)C1CC1)[C@H](C)CN([C@@H](C)CO)S2(=O)=O

# Part of the list above, set out differently.
> C[C@H](CO)N1C[C@H](C)[C@H](CN(C)S(=O)(=O)c2ccc(Cl)cc2)Oc2ccc(NC(=O)Cn3cnnn3)cc2C1=O
  MLL AF4-AF9 inh = -14.3
  FGF22 binding = i

> C[C@H](CO)N1C[C@H](C)[C@@H](CN(C)CC2CCCCC2)Oc2ccc(NS(=O)(=O)c3cccs3)cc2C1=O
  MLL AF4-AF9 inh = -10.0
  FGF22 binding = i

> O=C(C1=C[C@@H](c2ccccc2)C[C@@H](OCCCCO)O1)N1CCN(Cc2ccccc2)CC1
  MLL AF4-AF9 inh = 0.2
  FGF22 binding = i

> COCC#Cc1ccc2c(c1)O[C@H](CN(C)S(=O)(=O)c1ccc(F)cc1)[C@@H](C)CN([C@@H](C)CO)S2(=O)=O
  MLL AF4-AF9 inh = -3.6
  FGF22 binding = i

# Next part:
MLL AF4-AF9 inh	FGF22 binding	Structure
-5.2	i	CO[C@@H]1CC[C@H]2CCOc3c(C#N)cccc3C(=O)N(C)C[C@@H](c3ccccc3)CC(=O)N(C)C[C@@H]1O2
0.0	i	CC(C)NC(=O)N(C)C[C@H]1OCCCC[C@@H](C)Oc2ccc(NS(=O)(=O)c3ccccc3)cc2C(=O)N([C@H](C)CO)C[C@H]1C
-2.8	i	C[C@@H]1CN([C@H](C)CO)C(=O)Cc2cc(NC(=O)C3CCCCC3)ccc2O[C@H]1CN(C)S(=O)(=O)c1cn(C)cn1
-1.3	i	C[C@@H]1CCCCO[C@H](CN(C)C(=O)c2ccccc2)[C@H](C)CN([C@H](C)CO)C(=O)c2cc(NS(=O)(=O)c3ccc(Cl)cc3)ccc2O1
-22.6	i	COc1ccc(S(=O)(=O)N(C)C[C@@H]2Oc3ccc(NC(=O)c4ccncc4)cc3C(=O)N([C@@H](C)CO)C[C@@H]2C)cc1
-0.8	i	C[C@H](CO)N1C[C@H](C)[C@H](CN(C)S(=O)(=O)c2cn(C)cn2)Oc2c(NC(=O)Nc3cccc4ccccc34)cccc2C1=O
-1.4	i	C[C@@H]1CCCCO[C@@H](CN(C)S(=O)(=O)c2ccc(F)cc2)[C@@H](C)CN([C@@H](C)CO)C(=O)c2cc(NS(C)(=O)=O)ccc2O1
-1.7	i	C[C@H](NC(=O)[C@H]1[C@H](CO)[C@H]2Cn3c(cccc3=O)[C@@H]1N2C(=O)C1CCC1)c1ccccc1
-1.5	i	O=C(C[C@@H]1CC[C@H](NC(=O)Nc2ccccc2)[C@H](CO)O1)NCc1ccccn1
-4.8	i	C[C@H]1CN([C@@H](C)CO)C(=O)c2cc(C#CC(C)(C)O)cnc2O[C@H]1CN(C)Cc1cncnc1
4.8	i	C[C@H](CO)N1C[C@H](C)[C@@H](CN(C)Cc2ccccc2)Oc2ccc(NC(=O)Cn3cnnn3)cc2CC1=O
6.6	i	Cc1ccccc1S(=O)(=O)N1C[C@H](O)COC[C@@H]2O[C@@H](CC(=O)N3CCC(Cc4ccccc4)CC3)CC[C@H]21
-34.2	i	CCC(=O)Nc1ccc2c(c1)OC[C@@H](C)N(Cc1cccnc1)C[C@@H](C)[C@@H](OC)CN(C)C2=O
0.5	i	O=C(N[C@H]1CC[C@@H](CCNS(=O)(=O)c2ccc(Cl)cc2)O[C@@H]1CO)c1cnccn1
-2.9	i	CC(=O)N(C)C[C@H]1Oc2ncc(-c3ccccc3F)cc2C(=O)N([C@@H](C)CO)C[C@@H]1C
0.9	i	C[C@@H]1CN([C@H](C)CO)C(=O)Cc2cc(NC(=O)Cc3ccccc3)ccc2O[C@@H]1CN(C)C(=O)Nc1ccc(C(F)(F)F)cc1
-9.0	i	C[C@@H]1CN([C@H](C)CO)C(=O)Cc2cc(NC(=O)Nc3ccc(C(F)(F)F)cc3)ccc2O[C@H]1CN(C)Cc1ccc(C(=O)Nc2ccccc2N)cc1
-6.2	i	CN(C)CCCNC(=O)C[C@H]1CC[C@@H]2[C@H](COC[C@H](O)CN2Cc2cccc(F)c2)O1
2.8	i	CC(C)NC(=O)Nc1ccc2c(c1)C(=O)N([C@H](C)CO)C[C@H](C)[C@@H](CN(C)Cc1ccc(Cl)c(Cl)c1)OCCCC[C@@H](C)O2
4.7	i	CC(C)CC#Cc1ccc([C@@H]2[C@@H](CO)N3CCCCN(S(=O)(=O)c4ccc(F)cc4)C[C@H]23)cc1
-0.3	i	COc1cccc(S(=O)(=O)Nc2ccc3c(c2)[C@@H]2C[C@H](CC(=O)NCc4ccc(Cl)cc4)O[C@H](CO)[C@@H]2O3)c1
0.9	i	O=C(C[C@@H]1C[C@H]2c3cc(NC(=O)C4CCC4)ccc3O[C@H]2[C@@H](CO)O1)NCc1ccccn1
20.1	i	COc1ccc2c3c([nH]c2c1)[C@H](CO)N(Cc1ccccc1OC)CC31CN(C)C1
1.3	i	COc1ccc2c3c(n(C)c2c1)[C@H](CO)NCC31CCN(C(=O)c2cccc(F)c2)CC1
-7.6	i	O=C(CN1CCOCC1)N1CC2(C1)[C@H](c1ccccc1)[C@@H](CO)N2Cc1cccc(F)c1
-0.5	i	O=C(Nc1ccc(Cl)cc1)N[C@@H]1CC[C@@H](CCNC(=O)c2ccccc2F)O[C@H]1CO
-2.0	i	CC(C)CC#Cc1cnc2c(c1)C(=O)N([C@@H](C)CO)C[C@H](C)[C@@H](CN(C)S(=O)(=O)c1ccccc1)O2
2.0	i	C[C@H]1CN([C@@H](C)CO)C(=O)Cc2cc(NC(=O)Cc3cn(C)c4ccccc34)ccc2O[C@@H]1CN(C)C(=O)Nc1ccc2c(c1)OCO2
-1.3	i	O=C(C[C@@H]1C[C@@H]2c3cc(NC(=O)NC4CCCC4)ccc3O[C@@H]2[C@H](CO)O1)NCCc1ccccc1
1.6	i	COCC(=O)N1CC2(CN(Cc3cccnc3)C2)c2c(n(C)c3cc(OC)ccc23)[C@@H]1CO
-0.1	i	CCCNC(=O)[C@H]1[C@H](CO)[C@H]2Cn3c(ccc(C4=CCCC4)c3=O)[C@@H]1N2Cc1ccncc1
7.8	i	CCCN(C)C[C@@H]1Oc2cc(C#Cc3ccccc3)ccc2S(=O)(=O)N([C@@H](C)CO)C[C@@H]1C
-1.7	i	CCNC(=O)C[C@@H]1CC[C@H]2[C@@H](COC[C@@H](O)CN2C(=O)CC)O1
-2.3	i	C[C@@H]1CN([C@H](C)CO)C(=O)c2cc(-c3cccnc3)cnc2O[C@H]1CN(C)S(C)(=O)=O
-0.6	i	CCCNC(=O)N1[C@@H]2CN(C(=O)C3CC3)c3ccccc3[C@@H]2[C@@H]1CO
11.6	i	OC[C@H]1[C@@H](c2ccc(C#Cc3ccccc3)cc2)[C@@H]2CN(Cc3cncnc3)CCCCN12
0.3	i	C[C@@H]1CN([C@H](C)CO)C(=O)c2cccc(N(C)C)c2O[C@H]1CN(C)S(=O)(=O)c1cccs1
-1.6	i	CC=Cc1ccc2n(c1=O)C[C@H]1[C@H](CO)[C@@H](C(=O)NCC)[C@@H]2N1S(=O)(=O)c1cn(C)cn1 (mixture of isomers)
-4.4	i	COCC(=O)N1CCCCN2[C@H](C1)[C@@H](c1ccc(-c3ccc(OC)cc3)cc1)[C@@H]2CO
-0.8	i	C[C@H](NC(=O)C[C@H]1C[C@@H]2c3cc(NC(=O)NC4CCCCC4)ccc3O[C@@H]2[C@@H](CO)O1)c1ccccc1
0.6	i	COCC(=O)NC[C@H]1[C@@H](c2ccccc2)[C@H](CO)N1C(C)=O
-2.0	i	CCCNC(=O)N(C)C[C@H]1Oc2ncc(C3=CCCC3)cc2C(=O)N([C@@H](C)CO)C[C@@H]1C
-0.6	i	CCCNC(=O)N[C@H]1C=C[C@H](CC(=O)NC2CCCCC2)O[C@H]1CO
-4.2	i	C[C@@H](NC(=O)C[C@H]1C[C@@H]2c3cc(NC(=O)NC4CCCC4)ccc3O[C@@H]2[C@H](CO)O1)c1ccccc1
1.6	i	COc1ccc(S(=O)(=O)Nc2ccc3c(c2)C(=O)N([C@H](C)CO)C[C@@H](C)[C@H](CN(C)C(=O)C2CCCCC2)OCCCC[C@H](C)O3)cc1
-0.6	i	C[C@@H]1CN([C@@H](C)CO)C(=O)c2cc(NC(=O)C3CCCCC3)ccc2O[C@@H](C)CCCCO[C@H]1CN(C)C(=O)Nc1ccc2c(c1)OCO2
-1.1	i	C[C@H](CO)N1C[C@H](C)[C@H](CN(C)C(=O)C2CCC2)Oc2ncc(-c3cccc(C#N)c3)cc2C1=O
